# SARS PLpro yeast – blocks SARS-CoV papain-like protease in a yeast assay | S. cerevisiae expressing SARS-CoV PLpro, growth rescue; control for the full effect not named in the record | Potency, µM (series often up to 32.9 µM), without a hit: top-dose activity, positive = growth rescue | actives 0.19% (n = 330,000); active means well fitted rising curve with a large enough effect; inconclusive means small, poorly fitted or top-dose-only effect; inactive means no such curve, though single readings can be large or run the other way; note: 0% is about no effect; nearly all actives have a fitted effect of over 55% in size; growth read by luminescence after 48 h
# StopGo reporter – FMDV 2A StopGo reporter, luciferase signal. Potency, µM (highest dose often 57.9 µM), inactives show top-dose signal change, negative = less light. human cells with a luciferase reporter of 2A StopGo recoding; control for the full effect not named in the record. actives 1.2% (n = 410,000); active = well fitted falling curve with a large enough effect; inconclusive = small, poorly fitted or top-dose-only effect; inactive = no such curve, though single readings can be large or run the other way; tested in HEK293T cells; note: % is set by controls: 0 for no effect and ±100 for the full control effect; nearly all actives have a fitted effect of over 45% in size; luciferase light after 4 h
# NS1 function inh – inhibitors of influenza NS1 protein function; actives 0.4% (n = 270,000); Potency, µM (highest dose often 46.1 µM), inactives show at the highest dose activity, positive = more growth; AID 2326; S. cerevisiae slowed by influenza A NS1, growth recovery by OD600; active means well fitted rising curve with a large enough effect; inconclusive means small, poorly fitted or top-dose-only effect; inactive means no such curve, though single readings can be large or run the other way; note: nearly all actives have a fitted effect of over 50% in size
#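 Growth recovery, yeast-based: influenza A NS1 expressed in S. cerevisiae causes slow growth, and suppressors are detected by OD600. The parent strain without NS1 is used as positive control.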
# RE007 growth inh – less growth of the S. pombe RE007 Vpr strain. S. pombe RE007 Vpr strain, BacTiter-Glo ATP luminescence, 24 h; control for the full effect not named in the record. Potency, µM (doses to about 92.2 µM), inactives show top-dose activity change, negative = less growth. actives 0.21% (n = 360,000). AID 651644; active = well fitted falling curve with a large enough effect; inconclusive = small, poorly fitted or top-dose-only effect; inactive = no such curve, though single readings can be large or run the other way;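 note: % is set by controls: 0 for no effect and ±100 for the full control effect; nearly all actives have a fitted effect of over 50% in size; the assay follows cell death caused by Vpr and the record does not say whether a fall means rescue or toxicity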
#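 Fission yeast strain RE007, carrying one chromosomally integrated HIV-1 vpr copy, was seeded at OD 0.01 in PMG+AL medium with 23 nL pinned compound. After 24 h at 30 °C and 99% humidity, viability was read by BacTiter-Glo luminescence.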
# MARV entry inh – Marburg virus entry inhibition; Marburg virus pseudotyped entry inhibition, cell reporter; control for the full effect not named in the record; about a third of the inactives were read at about 46 µM; Potency, µM (top dose mostly 37.8 µM), for the others: at the top dose activity change, negative = inhibition, actives largely listed as inhibitors; actives 1.8% (n = 300,000); active = well fitted inhibition curve with a large enough effect; inconclusive = small, poorly fitted or top-dose-only effect, or effect the other way; inactive = flat fitted curve, though single readings scatter; tested in HEK293 cells; about a fifth of its hits are not listed in these tables; note: % is set by controls: 0 for no effect and ±100 for the full control effect; luciferase read-out
# Cruzain noTriton – inhibitors of Trypanosoma cruzi cruzain without detergent; purified cruzain, Z-FR-AMC fluorescence, no detergent; actives 2.3% (n = 200,000); P25779; AID 1476; Potency, µM, inactives show max response, negative = inhibition, usual class: inhibitors;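 note: plate controls were enzyme without inhibitor for no effect and buffer without enzyme for full effect; nearly all actives have a fitted effect of over 40% in size; top concentration of the series not given in the record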
# Target sequence (P25779 123-467 limits assumed): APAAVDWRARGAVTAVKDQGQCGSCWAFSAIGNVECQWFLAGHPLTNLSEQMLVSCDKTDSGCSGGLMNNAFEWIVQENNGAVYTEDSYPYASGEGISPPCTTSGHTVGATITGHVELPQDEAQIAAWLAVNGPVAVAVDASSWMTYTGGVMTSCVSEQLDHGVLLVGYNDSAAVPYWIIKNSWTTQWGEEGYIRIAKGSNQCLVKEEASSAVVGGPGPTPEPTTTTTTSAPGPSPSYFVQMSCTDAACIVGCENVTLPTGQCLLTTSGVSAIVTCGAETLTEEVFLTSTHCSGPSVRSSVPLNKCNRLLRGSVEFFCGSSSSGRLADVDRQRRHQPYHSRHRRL
#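 Purified cruzain at 1.5 nM, pre-incubated 15 min with compound at room temperature in 100 mM sodium acetate pH 5.5, 5 mM DTT, 0.00005% Triton X-100. Reaction started with 2 uM Z-FR-AMC; AMC fluorescence increase over 60 s gives rate.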
# LASV entry inh – inhibitors of Lassa virus binding or cell entry; Lassa virus pseudotype entry inhibition, cell reporter; control for the full effect not named in the record; Potency, µM (doses to about 37.9 µM), for inactives: at the top dose activity change, negative = inhibition, usual class: inhibitors; actives 1.2% (n = 300,000); AID 540256; active means well fitted inhibition curve with a large enough effect; inconclusive means small, poorly fitted or top-dose-only effect, or effect the other way; inactive means flat fitted curve, though single readings scatter; tested in HEK293 cells; note: % is set by controls: 0 for no effect and ±100 for the full control effect; nearly all actives have a fitted effect of over 50% in size; luciferase read-out
# Cruzain inh Det – cruzain (T. cruzi) inhibition with detergent; AID 1478; purified cruzain, Z-FR-AMC fluorescence, 0.01% Triton; P25779; Potency, µM, for the others: max response, negative = inhibition, most hits filed as inhibitors; actives 0.43% (n = 200,000);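 note: plate controls were neutral wells for no effect and buffer without enzyme for full effect; nearly all actives have a fitted effect of over 40% in size; top concentration of the series not given in the record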
#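 Detergent-containing arm of a paired screen for aggregation-based inhibition: 0.01% Triton X-100 present. Cruzain at 1.5 nM cleaved 2 uM Z-FR-AMC at pH 5.5 with 5 mM DTT; AMC fluorescence gain over 60 s measured activity.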
# * hit, by the source's call; ? = inconclusive; . = no result given; & = joins results of further samples; [ ] = dose if it differs, or a comment. Unless noted, calls come from the whole dose curve; as a rule, active = well fitted curve in the direction sought with a large enough effect; inconclusive = small, poorly fitted or top-dose-only effect, or another doubt; inactive = no such curve, though single readings can be large; an effect the other way counts as inactive or inconclusive. Potency is the fitted concentration of half-maximal effect.
cpd	Compound	RE007 growth inh	Cruzain noTriton	StopGo reporter	MARV entry inh
1	C=CCn1c(C)cc(C(=O)COC(=O)C2CC(=O)N(Cc3ccccc3)C2)c1C (stereo not given)	10%	22%	6%	-12%[46.1 µM]
2	CCCCn1c(N)c(N(Cc2ccccc2OC)C(=O)C(C)Oc2ccc(F)cc2)c(=O)[nH]c1=O (stereo not given)	10%	.	-3%	2%
3	COc1ccc(C2/C(=C(/O)c3ccc(C)cc3)C(=O)C(=O)N2CC2CCCO2)cc1OC (stereo not given)	4%	.	-2%	8%[46.1 µM]
4	CCn1c(=O)c2sccc2n2c(CCCC(=O)N3CCN(c4cccc(Cl)c4)CC3)nnc12	.	-8%	?	.
5	CCCN1CCN(CCCNC(=O)c2cc3c(=O)n(CC)c4ccccc4c3s2)CC1	.	-13%	0%	?
6	Cc1ccc2c(c1)NC(=O)C(CC(=O)NCCCN1CCCC1=O)O2 (stereo not given)	10%	-5%	-11%	.
7	COc1ccc(/C=C/C(=O)c2ccc[nH]2)c(OC)c1OC	-7%	-6%	32%[activator]	7%
8	CC1CN(C(=O)Nc2ccccc2)c2ccccc2-[n+]2ccsc21 (stereo not given)	-3%	-9%	-4%	0%
9	CN(C)S(=O)(=O)c1ccc2c(c1)N(CC(=O)NCc1ccc(F)cc1)C(=O)CS2	.	?	-25%	.
10	Cc1cc(C)c2c(NC(=S)NC(=O)c3ccccc3)nn(C)c2n1	-7%	.	2%	27%[46.1 µM]
11	COc1cccc(-c2nc(CS(=O)(=O)CC(=O)NCCCN3CCc4ccccc4C3)c(C)o2)c1	7%[3.69 µM]	-6%	4%	-2%&2%
12	COc1ccc(N2C(=O)CC(N3CCCC4CCCCC43)C2=O)cc1 (stereo not given)	7.1µM*	2%	1%	13%

cpd	Cruzain inh Det	SARS PLpro yeast	LASV entry inh	NS1 function inh
1	3.3%	3%	1%	-9%
2	.	1%	14%[46.1 µM]	.
3	.	1%	-15%[46.1 µM]	4%
4	0.2%	.	?	.
5	-5.1%	.	-22%[46.1 µM]	.
6	3.2%	0%	.	-1%
7	-11%	-32%	12%	-9%
8	0.6%	7%	-15%	12%
9	3.7%	.	20%[46.1 µM]	.
10	.	15%	23%	.
11	-0.3%	-1%	-6%	?
12	-2.5%	-11%	3%	-17%

# One compound at a time, from the list above. Order of screens: RE007 growth inh, Cruzain noTriton, StopGo reporter, MARV entry inh, Cruzain inh Det, SARS PLpro yeast, LASV entry inh, NS1 function inh
# COc1ccc(C2/C(=C(/O)c3ccc(C)cc3)C(=O)C(=O)N2CC2CCCO2)cc1OC (stereo not given) is listed as 4%, ., -2%, 8%[46.1 µM], ., 1%, -15%[46.1 µM], 4%
# CCCN1CCN(CCCNC(=O)c2cc3c(=O)n(CC)c4ccccc4c3s2)CC1 is listed as ., -13%, 0%, ?, -5.1%, ., -22%[46.1 µM], .
# CCCCn1c(N)c(N(Cc2ccccc2OC)C(=O)C(C)Oc2ccc(F)cc2)c(=O)[nH]c1=O (stereo not given) is listed as 10%, ., -3%, 2%, ., 1%, 14%[46.1 µM], .
# COc1cccc(-c2nc(CS(=O)(=O)CC(=O)NCCCN3CCc4ccccc4C3)c(C)o2)c1 is listed as 7%[3.69 µM], -6%, 4%, -2%&2%, -0.3%, -1%, -6%, ?
# CC1CN(C(=O)Nc2ccccc2)c2ccccc2-[n+]2ccsc21 (stereo not given) is listed as -3%, -9%, -4%, 0%, 0.6%, 7%, -15%, 12%

# More results follow.
cpd	Compound	RE007 growth inh	Cruzain noTriton	StopGo reporter	MARV entry inh
13	COc1cc(CN(C(=O)COc2ccc(C)cc2)c2ccccn2)cc(OC)c1OC	.	17%	-3%	-16%[46.1 µM]
14	O=C(Nc1ncccc1Cl)c1ccc2c(c1)OCCO2	-4%	.	50%[activator]	?
15	COc1ccccc1/C=N/NC(=O)c1csc(C)c1C	-5%	-8%	41%[activator]	2%
16	c1ccc(C2=Nn3c(nnc3-c3ccncc3)SC2)cc1	-7%	8%	-24%	?
17	O=C(CCn1nnc2ccccc2c1=O)N[C@@H](Cc1ccccc1)C(=O)O	3%	10%	10%	10%
18	Cc1cc(C)cc(C(=O)NC(CC(N)=O)c2ccc(NC3CCCCC3)c([N+](=O)[O-])c2)c1 (stereo not given)	-15%	.	-8%	.
19	CCOc1ccc(C(=O)NCc2ccco2)cc1Cl	1%	.	12%	-10%[46.1 µM]
20	Cc1ccnc(SCCn2c(N3CCN(Cc4ccccc4)CC3)nc3c2c(=O)[nH]c(=O)n3C)n1	-10%	-8%	0%	3%
21	Cc1ccc(N(CC(=O)NCc2ccco2)C(=O)CNS(=O)(=O)c2ccccc2)c(C)c1	1%	.	-17%	-22%[46.1 µM]
22	O=C(c1ccco1)N1CCN(c2cc(C(F)(F)F)nc3ncnn23)CC1	-3%	-5%	-14%	-23%
23	COc1ccc(-c2cc(=O)oc3cc(OC(C)C(=O)O)ccc23)cc1 (stereo not given)	8%	8%	-1%	-6%
24	Cc1cccc(NC(=O)Cn2c(C(F)(F)F)nc3ccccc32)c1C	.	10%	0%	0%[46.1 µM]

cpd	Cruzain inh Det	SARS PLpro yeast	LASV entry inh	NS1 function inh
13	0.6%	.	-1%[46.1 µM]	.
14	.	-5%	5%	.
15	-3.9%	23%	-1%	13%
16	4.8%	1%	4%	-9%
17	4.6%	6%	11%	1%
18	.	-2%	.	7%
19	.	0%	?	25%
20	2.9%	-10%	.	-3%
21	.	4%	-27%	-4%
22	0.3%	8%	5%	-4%
23	-2.1%	3%	3%	-1%
24	-0.3%	.	-13%[46.1 µM]	.

# Next results:
cpd	Compound	RE007 growth inh	Cruzain noTriton	StopGo reporter	MARV entry inh
25	O=C(O)C(O)Cc1c[nH]c2ccccc12 (stereo not given)	38%	-8%	-18%	?
26	CCCc1nnc(NC(=O)CCCC(=O)O)s1	0%	16%	-14%	-4%
27	CC1(C)Cc2[nH]c3ccccc3c2C(C)(C)N1	-2%	.	-12%	.
28	COC(=O)/C=C1\N/C(=N\c2nc(C)cc(C)n2)N(c2ccc(C)cc2)C1=O	-10%	-11%	-8%	4%
29	COc1ccccc1CNC(=O)CCNC(=O)C1CCN(S(=O)(=O)c2ccccc2)CC1	-8%	.	-13%	.
30	CCN(CC)c1ccc(C(=O)OCC(=O)NCC2CCCO2)cc1 (stereo not given)	-14%[3.69 µM]	4%	-7%	-3%
31	CS(=O)(=O)N1CCN(c2ccccc2NC(=O)c2ccc3ccccc3c2)CC1	-4%	20µM*	?	-9%[46.1 µM]
32	Cc1nc(NC(=O)c2ccncc2)sc1C(=O)N(C)C	3%	.	-10%	4%[46.1 µM]
33	O=C(NCc1ccccn1)C1CCN(Cc2cnn(-c3ccccc3)c2-n2cccc2)CC1	-15%[3.69 µM]	-6%	-22%	-5%
34	CC1C[N+](=C2C=C(N3CCOCC3)CC(C)(C)C2)CC(C)O1 (stereo not given)	10%	.	-10%	-13%[46.1 µM]
35	CC1CCc2c(sc(NC(=O)CN3CCN(C(=O)c4ccco4)CC3)c2C#N)C1 (stereo not given)	-21%	?	?	-28%
36	Cc1ccc(C)c(S(=O)(=O)NC(C)C(=O)Nc2ccc(-c3nc4ccccc4s3)cc2)c1 (stereo not given)	11%	-26%	4%	-9%

cpd	Cruzain inh Det	SARS PLpro yeast	LASV entry inh	NS1 function inh
25	-6.4%	2%	5%	-3%
26	-0.8%	11%	-1%	6%
27	.	1%	.	-2%
28	-5.3%	9%	-13%	6%
29	.	-2%	.	6%
30	-5.4%	-5%	2%	-9%
31	-4.6%	-26%	-3%	9%
32	.	2%	18%[46.1 µM]	4%
33	5.0%	2%	6%	7%
34	.	7%	29%[46.1 µM]	-3%
35	-5.1%	-3%	-16%	-7%
36	5.8%	-14%	-2%	-5%

# The results go on:
cpd	Compound	RE007 growth inh	Cruzain noTriton	StopGo reporter	MARV entry inh
37	COCCCNC1CS(=O)(=O)CC1O (stereo not given)	-7%	.	-10%	-16%[46.1 µM]
38	CCOc1nc(NCCc2ccc(OC)c(OC)c2)nc(N2CCN(c3ccc(OC)cc3)CC2)n1	-17%[3.69 µM]	17%	-11%	8%
39	Cc1ccc(-c2c3c(=O)n(C)c(=O)n(C)c3cn2Cc2ccccn2)cc1	-4%	3%	-24%	-1%
40	Cc1ccc(OCC(=O)Nc2ccc(N3CCN(C(=O)c4ccco4)CC3)cc2)c(C)c1	-27%	.	16µM*	?
41	COc1ccc(NC(=O)c2ccc(S(=O)(=O)C(F)F)cc2)c(OC)c1	4%	.	-11%	.
42	Cc1ccc(NC(=O)Nc2cccnc2)cc1Cl	7%	.	18%	10%[46.1 µM]
43	CCc1ccccc1NC(=O)c1cc(S(=O)(=O)N2CCCC2)cn1C	.	1%	-11%	.
44	CCN(c1ccccc1)S(=O)(=O)c1ccc(NC(=S)NC(=O)c2cccs2)cc1	-7%	?	?	?
45	Cc1ccc(S(=O)(=O)N2CCC(N3CCN(Cc4ccccc4)C(=O)C3=O)CC2)cc1C	.	-3%	-6%	.
46	Cc1cccc(N(CC(N)=O)S(C)(=O)=O)c1C	-7%	-7%	-7%	-16%
47	C=CCNC(=O)c1cc(-c2ccccc2O)on1	5%	21%	76%[activator]	.
48	CN(C)/C=N/NC(=O)c1ccccc1Cl	1%	.	-3%	.
49	c1cc(CNc2ccc3c(c2)OCCO3)ccn1	1%	0%	-13%	2%[46.1 µM]

cpd	Cruzain inh Det	SARS PLpro yeast	LASV entry inh	NS1 function inh
37	.	0%	-5%[46.1 µM]	-80%
38	2.5%	0%	?	4%
39	-5.0%	-2%	-3%	-3%
40	.	-4%	?	8%
41	.	-3%	.	0%
42	.	-2%	-8%[46.1 µM]	-9%
43	-1.1%	.	0%[46.1 µM]	.
44	0.0%	4%	?	22%
45	3.9%	.	0%[46.1 µM]	.
46	5.7%	1%	-10%	7%
47	-0.7%	-3%	.	-1%
48	.	0%	.	1%
49	-3.2%	1%	?	9%

# Assay outcomes as filed in PubChem.
